# Screening results deposited in PubChem BioAssay by National Center for Advancing Translational Sciences (NCATS).
# N370S GC = inhibits or activates N370S mutant glucocerebrosidase; P04062; N370S GC spleen homogenate, 4MU-glucoside fluorescence; Potency, µM (doses to about 59.4 µM), for the others: top-dose activity change, negative = inhibition, hits mostly inhibitors; hit rate 0.092% among 330,000; AID 2101;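 also: 0% = full enzyme activity and -100% = no enzyme basal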
# GCN5L2 inh = blocks human GCN5L2 histone acetyltransferase; Potency, µM (titrated, usually from 58.9 µM), without a hit: at the top dose activity change, negative = inhibition, hits mostly inhibitors; GCN5L2 HAT assay, ThioGlo1 CoA-SH fluorescence; hit rate 0.21% among 390,000; Q92830; AID 504327
# Target sequence (Q92830 whole entry, looked up): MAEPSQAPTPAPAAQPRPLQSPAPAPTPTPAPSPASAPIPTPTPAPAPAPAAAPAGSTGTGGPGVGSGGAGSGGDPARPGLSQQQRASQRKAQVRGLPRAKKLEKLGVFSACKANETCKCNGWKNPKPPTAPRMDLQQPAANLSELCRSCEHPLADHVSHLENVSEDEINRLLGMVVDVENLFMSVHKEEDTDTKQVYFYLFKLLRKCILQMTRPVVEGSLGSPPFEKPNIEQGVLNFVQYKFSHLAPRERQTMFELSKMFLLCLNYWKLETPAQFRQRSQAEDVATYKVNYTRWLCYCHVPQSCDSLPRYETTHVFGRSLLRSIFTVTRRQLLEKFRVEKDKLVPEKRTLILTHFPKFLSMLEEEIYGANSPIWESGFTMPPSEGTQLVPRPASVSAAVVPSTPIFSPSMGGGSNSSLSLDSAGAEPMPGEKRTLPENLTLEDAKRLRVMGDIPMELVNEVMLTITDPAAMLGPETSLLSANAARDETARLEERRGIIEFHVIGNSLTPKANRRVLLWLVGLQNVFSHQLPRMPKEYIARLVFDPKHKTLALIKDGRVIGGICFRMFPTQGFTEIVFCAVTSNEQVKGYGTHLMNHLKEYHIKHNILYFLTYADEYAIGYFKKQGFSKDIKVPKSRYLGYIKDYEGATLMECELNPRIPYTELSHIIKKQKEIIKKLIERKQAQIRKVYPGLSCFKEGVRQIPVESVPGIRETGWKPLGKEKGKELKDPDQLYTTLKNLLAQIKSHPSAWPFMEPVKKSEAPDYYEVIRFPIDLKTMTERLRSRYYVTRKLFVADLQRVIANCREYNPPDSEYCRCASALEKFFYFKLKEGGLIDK
#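 Enzyme at 20nM final was mixed with library compounds for 15 min at room temperature. Peptide H3(1-25) at 75uM, acetyl-CoA at 70uM and ThioGlo1 at 50uM were then added. Plates were read immediately and after 20 min (Ex340nm/Em540nm).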
# * marks the source's active call; other numbers are inactive results; ? = inconclusive; nt = not tested or not shown; & = joins results of further samples; [ ] = another dose, or the depositor's remark. Calls follow the shape of the dose curve; as a rule, active = well fitted curve in the direction sought with a large enough effect; inconclusive = small, poorly fitted or top-dose-only effect, or another doubt; inactive = no such curve, though single readings can be large; an effect the other way counts as inactive or inconclusive. Unless noted, % is scaled to controls: 0 for no effect and ±100 for the full control effect; potency is read from the fitted curve at half-maximal effect. This is a subset; most or all hits stand in other tables.
entry	N370S GC	GCN5L2 inh	SMILES
1	3%	2%	O=c1c2[nH]c3ccc(F)cc3c2ncn1CCN1CCN(Cc2ccccc2)CC1
2	nt	-13%	Cc1nn(-c2ccccc2)c(-n2cccc2)c1C(=O)NCc1ccccc1Cl
3	nt	2%	Cc1cccc(C)c1NC(=O)CNC(=O)c1cccc(S(=O)(=O)NCc2cccs2)c1
4	1%	2%	Cc1ccc(OCC(=O)Nc2ccc(N3CCN(S(C)(=O)=O)CC3)cc2)cc1C
5	-1%	-14%	CCN(CC)C(=O)CSc1nc(C)cc(-c2cccs2)c1C#N
6	10%	-9%	CCCCSc1cnn(-c2ccccc2)c(=O)c1SCCCC
7	-3%	-6%	CCOc1ccc(N(C)S(=O)(=O)c2ccc(C)c(C(=O)NCCc3ccc(OC)cc3)c2)cc1
8	-31%	0%	COc1cccc(N2CCN(C(=O)c3ccc(-c4ccccc4)cc3)CC2)c1
9	nt	3%	Cc1ccc(NC(=O)CN2C(=O)NC3(CCCCC3)C2=O)cc1S(=O)(=O)N1CCOCC1
10	5%	18%	Cc1ccc(NC(=O)CCC(=O)N/N=C/c2ccc([N+](=O)[O-])o2)cc1C
11	6%	1%	CCCCCSc1nc(O)cc(=O)[nH]1
12	0%	-2%	CC(C)CCN(C)C1CCN(S(=O)(=O)c2ccc(F)cc2)CC1
13	nt	-2%	CC1(C)Oc2cc3oc(=O)ccc3cc2C[C@@H]1O
14	?	3%	O=C(CSc1ncccn1)Nc1ncc(C(F)(F)F)cc1Cl
15	3%	2%	FC(F)(F)c1nnc(-c2ccccc2)nc1N1CCOCC1
16	-4%	-11%	CCOc1ccc(N2C(=O)c3ccc(C(=O)OCC(=O)N(CC)C4CCS(=O)(=O)C4)cc3C2=O)cc1 (stereo not drawn)
17	?	-8%	Cc1cc(C(=O)NC2CCCc3c2cnn3-c2cccc(C)c2C)c(C)o1 (stereo not drawn)
18	?	-7%	CCOC(=O)c1c(CN(C)C)oc2cc(CN(C)C)c(O)c(CSc3ccccc3)c12
19	-8%	-3%	CC(=O)c1sc(NC(=O)c2ccccc2)nc1-c1ccccc1
20	1%	2%	CC(C)OP(C)(=O)CN1CCN(CP(C)(=O)OC(C)C)CC1 (stereo not drawn)
21	2%	-17%	O=C(COC(=O)c1ccc2c(c1)C(=O)N(Cc1ccncc1)C2=O)Nc1ccccc1[N+](=O)[O-]
22	nt	2%	CCN(C[C@H]1N[C@@](CC)(C(=O)OC)[C@H]2C(=O)N(C)C(=O)[C@@H]12)C(=O)Nc1ccc(Cl)cc1
23	5%	-12%	Cc1ccccc1NC(=O)Nc1ccccc1C(N)=O
24	-14%	-4%	O=C(O)C(C(O)c1ccc([N+](=O)[O-])cc1)[n+]1ccccc1 (stereo not drawn)
25	-6%	-12%	CCc1ccccc1N=C1S/C(=C/c2ccccc2OCC(=O)N2CCOCC2)C(=O)N1C
26	?	-8%	COc1ccc(-c2oc3cccnc3c2C#CC2(O)CCCCC2)cc1
27	nt	-9%	CCc1nc2c(cnn2-c2ccc(C)cc2)c(=O)n1-c1ccc(C)cc1
28	2%	nt	CCOc1ccc(C2CC(=O)c3c([nH]c(C(=O)OC)c3C)C2)cc1OC (stereo not drawn)
29	2%	-6%	Cc1sc2nc(CSC(C)C(=O)Nc3cc(S(C)(=O)=O)ccc3Cl)[nH]c(=O)c2c1C (stereo not drawn)
30	6%	-11%	CCOc1cc(N2CCOCC2)c(OCC)cc1NC(=O)c1ccc(C)s1

# 3 compounds from above, ordered by SMILES length, rising:
entry	N370S GC	GCN5L2 inh	SMILES
26	?	-8%	COc1ccc(-c2oc3cccnc3c2C#CC2(O)CCCCC2)cc1
30	6%	-11%	CCOc1cc(N2CCOCC2)c(OCC)cc1NC(=O)c1ccc(C)s1
24	-14%	-4%	O=C(O)C(C(O)c1ccc([N+](=O)[O-])cc1)[n+]1ccccc1 (stereo not drawn)

# Four entries out of the list above, arranged by their value in N370S GC, ascending:
entry	N370S GC	GCN5L2 inh	SMILES
24	-14%	-4%	O=C(O)C(C(O)c1ccc([N+](=O)[O-])cc1)[n+]1ccccc1 (stereo not drawn)
28	2%	nt	CCOc1ccc(C2CC(=O)c3c([nH]c(C(=O)OC)c3C)C2)cc1OC (stereo not drawn)
23	5%	-12%	Cc1ccccc1NC(=O)Nc1ccccc1C(N)=O
30	6%	-11%	CCOc1cc(N2CCOCC2)c(OCC)cc1NC(=O)c1ccc(C)s1

# (next part)
entry	N370S GC	GCN5L2 inh	SMILES
31	-22%	-23%	CC(C)C(=O)Nc1ccc2c(c1)nc(CCN1CCCCC1)n2C
32	-12%	-4%	Cc1cccc(NC(=O)c2cccc(N3C(=O)C4CCC(C)CC4C3=O)c2)c1C (stereo not drawn)
33	7%	-25%	CCc1cc2ccc(C)cc2nc1SCC(=O)c1ccc(NC(C)=O)cc1
34	nt	-11%	COc1ccccc1CNC(=O)COc1ccccc1C(=O)c1cnn(-c2ccccc2)c1
35	nt	-23%	C=CCN1C(=O)C(CC(=O)O)S/C1=N/N=C/c1ccc(N(CC)CC)cc1 (stereo not drawn)
36	nt	-3%	Cc1cc(SCC(=O)N2CCN(C(=O)c3ccco3)CC2)c(C)cc1Br
37	nt	-7%	Cc1noc(C)c1COc1ccc(C(=O)NCCc2ccc(F)cc2)cc1
38	-7%	-1%	CN1CC(=O)N2C(c3cccc([N+](=O)[O-])c3)c3[nH]c4ccccc4c3C[C@H]2C1=O (stereo partly drawn)
39	-12%&9%	0%&-2%	C[C@H](NC(=O)C1(c2ccccc2)CCN(C(=O)[C@H]2CSCN2C(=O)OC(C)(C)C)CC1)C(=O)O
40	4%	-7%	CC1CCCN(C(=O)C2CCN(S(=O)(=O)c3cccc4cccnc34)CC2)C1 (stereo not drawn)
41	-1%	-4%	O=C(CSc1nnc(CNC(=O)c2cccc(C(F)(F)F)c2)o1)NC1CCCC1
42	6%	-10%	Cc1c(NC(=O)C(C)OC(=O)CC2Sc3ccccc3NC2=O)c(=O)n(-c2ccccc2)n1C (stereo not drawn)
43	-1%	-5%	C#CC[N+]1(CC#Cc2ccccc2)CCOCC1
44	-5%	-23%	Cc1cnc(C(=O)N2CCCC(N3CCN(c4ccccc4C)CC3)C2)cn1 (stereo not drawn)
45	-11%	-9%	Cc1ccc(NC(=O)CCN2CCCCC2)cc1
46	-5%	-7%	O=C(c1n[nH]c2ccccc12)N1CCN(c2ccc(F)cc2)CC1
47	0%	-3%	Cc1cc(NC(=O)Nc2cccc(C(F)(F)F)c2)n(C)n1
48	-15%	-7%	O=C(COc1ccccc1)NCC(c1ccco1)N1CCN(c2ccc(F)cc2)CC1 (stereo not drawn)
49	2%[2.35 µM]	-1%	O=C(Nc1ccc(Cl)cc1)C1CC2CCCC(C1)C2=O (stereo not drawn)
50	-9%	-26%	O=C(CCCc1ccccc1)Nc1ccnn1C1CCN(Cc2ccccc2F)CC1
51	-3%	1%	CC(C)c1cccc(OCC(=O)Nc2ccc(S(=O)(=O)Nc3ccccn3)cc2)c1
52	-1%	-4%	CCCNC(=O)C1=C(C)C(=O)OC12CCC(C)CC2 (stereo not drawn)
53	8%	-7%	CCOC(=O)c1c(-n2cnnn2)sc(C)c1C
54	nt	-12%	CCOC(=O)c1ccccc1NC(=O)CN(c1ccccc1)S(=O)(=O)c1ccc(OCC)cc1
55	-9%	-10%	COc1ccc2[nH]cc(C(O)CN3CCN(c4ccccc4F)CC3)c2c1 (stereo not drawn)
56	-6%	-9%	COc1ccc(/C=N/n2cc(-c3ccccc3)nc2N)cc1
57	-7%	-10%	COc1ccc(N2CCN(C3CCCCC3NS(=O)(=O)c3ccc(Cl)cc3)CC2)cc1 (stereo not drawn)
58	8%	4%	Cc1cccc(NC2=NC(C)(C)N=C(N)N2)c1C
59	2%	-3%	Cc1nn(C)cc1CNC(=O)C1CCC(=O)N(CC2CCCCC2)C1 (stereo not drawn)
60	2%	37%[activator]	Cc1cc(C)c(S(=O)(=O)NCC2CCC(C(=O)NCc3ccc4c(c3)OCO4)CC2)c(C)c1 (stereo not drawn)
61	-3%	-1%	CN(C)/C=N/NC(=O)c1ccc(Cl)cc1
62	-2%	2%	COc1ccc(C(=O)Cc2cc3cccc(OC)c3oc2=O)cc1
63	0%	-2%	O=C(NC1CCSC1=O)c1ccc(Oc2ccc(F)cc2)nc1 (stereo not drawn)
64	-3%	-20%	CCOC(=O)C1=C(COC(=O)c2ccccc2[N+](=O)[O-])NC(=O)NC1C (stereo not drawn)
65	-17%	-3%	CC(C)(C)c1ccc(C(=O)Nc2ncn[nH]2)cc1
66	-7%	2%	Cc1scc(C(=O)NNC(=S)NCC2CCCO2)c1C (stereo not drawn)
67	-10%	-3%	Cc1ccc(C)n1-c1cccc(S(=O)(=O)N2CCOCC2)c1
68	nt	0%	Nc1cc(=O)nc(SCC(=O)Nc2ccccc2)n1CCc1ccccc1
69	1%	-10%	CCc1cccc(NC(=O)CSc2nnc(Cc3ccc(OC)cc3)c(=O)[nH]2)c1
70	-2%	-5%	Cc1cccc(OCC(=O)Nc2ccc(N3CCN(C(=O)c4ccco4)CC3)cc2)c1

# Entries of single compounds, quoted from the list. Values in the order: N370S GC, GCN5L2 inh
# Shown for `CCOc1ccc(N(C)S(=O)(=O)c2ccc(C)c(C(=O)NCCc3ccc(OC)cc3)c2)cc1` = -3%, -6%
# Shown for `O=C(Nc1ccc(Cl)cc1)C1CC2CCCC(C1)C2=O` (stereo not drawn) = 2%[2.35 µM], -1%
# Shown for `Cc1ccc(C)n1-c1cccc(S(=O)(=O)N2CCOCC2)c1` = -10%, -3%
# Shown for `COc1cccc(N2CCN(C(=O)c3ccc(-c4ccccc4)cc3)CC2)c1` = -31%, 0%
# Shown for `Cc1cc(C(=O)NC2CCCc3c2cnn3-c2cccc(C)c2C)c(C)o1` (stereo not drawn) = ?, -8%

# Later entries.
entry	N370S GC	GCN5L2 inh	SMILES
71	5%	4%	Cc1cccc(N2CC(C(=O)OCc3ccc([N+](=O)[O-])cc3)CC2=O)c1 (stereo not drawn)
72	-18%	-23%	CCNc1ccc(N=Nc2c(C)n(C)n(-c3ccccc3)c2=O)cc1
73	-19%	-2%	CC1=NN(C(=O)c2ccc(Cn3nc(C)c(Br)c3C)cc2)C(O)(C(F)(F)F)C1 (stereo not drawn)
74	8%	-12%	CCOCc1c(C(=O)NC2=Nc3ccccc3NC(CC)=C2C(=O)OCC)oc2ccccc12
75	-2%	-6%	CCOC(=O)c1c(C)[nH]c(C(=O)OCC(=O)c2ccccc2)c1C
76	nt	1%	COc1ccc(C(CNC(=O)CNC(=O)c2ccc(F)cc2)N2CCCC2)cc1 (stereo not drawn)
77	-16%	-3%	Cc1ccc(S(=O)(=O)CC(=O)c2cc(C)c(O)c(C)c2)cc1
78	1%	-2%	COCCNC(=O)C(c1ccc(OC)cc1)N(Cc1ccco1)C(=O)CCC(=O)Nc1ccccn1 (stereo not drawn)
79	18%	-2%	CC(C)(C)C(=O)NC(=S)Nc1ccccc1C(=O)NC1CCCCC1
80	nt	-6%	CC(C)(C)OC(=O)C[C@H]1C/C=C\C[C@@H](CC(=O)N[C@@H](CO)Cc2ccccc2)C(=O)NC[C@@H](c2ccccc2)OC1=O
81	-9%	-4%	CSc1ccc(C(=S)N2CCN(Cc3ccccc3)CC2)cc1
82	10%	1%	CCC1(C)OC(=O)NN(c2ccc(C)cc2)C1(C)O (stereo not drawn)
83	nt	0%	O=C(NCCN1CCCCC1)Nc1ccccc1
84	nt	-1%	COc1ccc(S(=O)(=O)N2CCOCC2)cc1NS(=O)(=O)c1ccc(F)c(F)c1
85	4%	-4%	CCOc1ccc(-n2c(C)nc3cc(C(=O)NCc4ccc5c(c4)OCO5)ccc32)cc1
